Vaccinia inh: blocks a specific stage of Vaccinia orthopoxvirus infection. Vaccinia-infected cells, mCherry/Venus stage reporter fluorescence; active compounds read low; some inactives read as strong as hits. activity change (mCherry), % (test concentration not listed). 0.01% of 89,000 active. AID 1053133;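 active = mCherry past -33% and 40 or more points under the early reporter, replicates agreeing; inconclusive = past -33% without that gap or agreement; tested in A549 cells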;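 note: scaled between vehicle wells and reference inhibitor wells; 23 nL library stock went into each well; one replicate is shown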
Vaccinia inh Venus: second read-out of Vaccinia inh, no call of its own (marks repeat the call); activity change (Venus), %; measured here: Venus reporter, other viral stage;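 negative = less Venus signal; first of two replicates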
An asterisk follows results filed as active; u = inconclusive; x = not tested or not shown; & = joins results of further samples. A portion of the library, so the mix of outcomes need not match the whole.

smiles	Vaccinia inh	Vaccinia inh Venus
C[C@@H]1CCCCO[C@@H](CN(C)Cc2ccc(C(=O)O)cc2)[C@@H](C)CN([C@@H](C)CO)C(=O)c2cc(NC(=O)Nc3ccc4c(c3)OCO4)ccc2O1	14.3	8.0
COc1cccc(S(=O)(=O)N(C)C[C@H]2Oc3ncc(C#CCN(C)C)cc3C(=O)N([C@@H](C)CO)C[C@H]2C)c1	-2.9	-0.4
COc1ccc(S(=O)(=O)Nc2ccc3c(c2)C(=O)N([C@@H](C)CO)C[C@@H](C)[C@@H](CN(C)C(=O)c2ccccc2)OCCCC[C@H](C)O3)cc1	-2.2	1.7
O=C(Cc1cccnc1)N[C@@H]1CC[C@@H](CCn2cc(-c3ccccc3F)nn2)O[C@@H]1CO	10.9	9.6
O=C(C1=C[C@@H](C2CCCCC2)C[C@@H](OCCCCO)O1)N1CCN(Cc2ccc3c(c2)OCO3)CC1	-12.3	-13.8
COc1cccc(NC(=O)N2CC(=O)N3[C@H](C2)[C@@H](c2ccc(C#CCC4CCCC4)cc2)[C@@H]3CO)c1	u	x
C[C@@H]1CCCCO[C@@H](CN(C)S(=O)(=O)c2ccc(Cl)cc2)[C@H](C)CN([C@H](C)CO)C(=O)c2cc(NS(=O)(=O)c3ccc(F)cc3)ccc2O1	u	x
O=S(=O)(c1ccccc1)N1CCCCN2[C@H](CO)[C@@H](c3ccc(C#Cc4ccccc4)cc3)[C@@H]2C1	14.7	3.8
Cn1cnc(S(=O)(=O)N2CCCCN3[C@H](CO)[C@H](c4ccc(-c5cccc(F)c5)cc4)[C@H]3C2)c1	-22.3	-28.8
Cc1noc(C)c1S(=O)(=O)N(C)C[C@H]1OCCCC[C@H](C)Oc2ccc(NC(=O)Nc3ccc(F)cc3)cc2C(=O)N([C@H](C)CO)C[C@@H]1C	-4.3	23.9
C[C@H](CO)N1C[C@H](C)[C@@H](CN(C)S(=O)(=O)c2ccc(Cl)cc2)Oc2c(NC(=O)c3ccc(-c4nccs4)cc3)cccc2C1=O	-14.7	-9.2
CCNC(=O)C[C@H]1CC[C@H]2[C@@H](COC[C@H](O)CN2C(=O)C2CCCC2)O1	11.3	11.7
CC(C)NC(=O)Nc1ccc2c(c1)CC(=O)N([C@@H](C)CO)C[C@H](C)[C@H](CN(C)S(=O)(=O)c1ccccc1)O2	3.0	-6.2
Cc1cccc(-c2ccc(C3[C@H]4CNC[C@@H]3N4CC3CCOCC3)cc2)c1 (stereo partly specified)	15.4&22.0	13.2&14.8
N#C[C@H]1N[C@H](CO)[C@H]1c1ccc(C#Cc2cccnc2)cc1	17.7	5.2
COc1ccc(OC(=O)N(C)C[C@@H]2OCc3cn(nn3)CCCC(=O)N([C@H](C)CO)C[C@H]2C)cc1	20.3	20.9
CCC(=O)Nc1ccc2c(c1)C(=O)N(C)[C@@H]1CC[C@@H](CC(=O)NCc3ccccc3Cl)O[C@H]1CO2	-4.2	-10.2
C[C@@H]1CN([C@H](C)CO)C(=O)c2cc(NC(=O)CCN3CCOCC3)ccc2O[C@@H]1CN(C)S(=O)(=O)c1cccs1	-8.2	-7.3
N#C[C@@H]1N[C@@H](CO)[C@@H]1c1ccc(C2=CCCC2)cc1	1.9	-1.2
CC(C)NC(=O)Nc1ccc2c(c1)C(=O)N([C@@H](C)CO)C[C@@H](C)[C@@H](CN(C)Cc1ccc(C(=O)O)cc1)OCCCC[C@@H](C)O2	35.6	6.8
O=C(C[C@@H]1C=C[C@H](NC(=O)Nc2ccc3c(c2)OCO3)[C@@H](CO)O1)NCCCN1CCOCC1	1.1	2.7
C[C@@H]1CN([C@H](C)CO)C(=O)CCCn2cc(nn2)CO[C@H]1CN(C)C(=O)C1CC1	3.6	2.6
COc1ccccc1S(=O)(=O)N1CC[C@@H]2[C@H]1c1cc(-c3ccccc3)ccc1N[C@@H]2CO	u	x
C[C@@H]1CN([C@@H](C)CO)C(=O)c2cccc(NC(=O)c3ccncc3)c2O[C@H]1CN(C)Cc1ccc(C(F)(F)F)cc1	2.7	-4.1
O=C(Nc1cc(F)ccc1F)N[C@@H]1CC[C@H](CCn2cc(C3CCCC3)nn2)O[C@@H]1CO	-20.5	-17.2
C[C@@H]1CN([C@@H](C)CO)C(=O)c2cc(NS(=O)(=O)c3ccc(F)cc3)ccc2O[C@@H](C)CCCCO[C@H]1CN(C)C(=O)c1ccncc1	28.3	19.0
Cc1noc(C)c1S(=O)(=O)Nc1ccc2c(c1)C(=O)N([C@H](C)CO)C[C@H](C)[C@H](CN(C)Cc1ccc(C(=O)O)cc1)O2	-3.4	-6.2
Cc1ccccc1S(=O)(=O)N1[C@H](C#N)[C@@H](c2ccc(C#CC3CCCC3)cc2)[C@@H]1CO	-4.2	-0.3
Cc1cccc(-c2ccc([C@H]3[C@H](CO)N4CCCCN(S(=O)(=O)c5cccc(C)c5)C[C@@H]34)cc2)c1	u	x
O=C(N[C@@H]1CC[C@@H](CCNS(=O)(=O)c2ccc(F)cc2)O[C@@H]1CO)c1cccnc1	3.5	-1.2
C[C@@H]1CCCCO[C@H](CN(C)S(=O)(=O)c2cn(C)cn2)[C@@H](C)CN([C@H](C)CO)C(=O)c2cc(NC(=O)c3ccncc3)ccc2O1	0.7	2.7
CC(C)NC(=O)N(C)C[C@@H]1Oc2c(cccc2N(C)C)C(=O)N([C@H](C)CO)C[C@@H]1C	18.7	12.0
COC(=O)C[C@H]1CC[C@H]2[C@H](COc3ccc(NS(=O)(=O)c4cccc(F)c4)cc3C(=O)N2C)O1	4.9	-1.0
O=C(C[C@H]1CC[C@H]2[C@@H](COC[C@H](O)CN2C(=O)c2cccnc2)O1)NCc1ccccc1	7.0	6.7
C[C@@H]1CCCCO[C@@H](CN(C)C(=O)Nc2cccc3ccccc23)[C@@H](C)CN([C@H](C)CO)C(=O)c2cc(NC(=O)NC3CCCCC3)ccc2O1	9.1	9.2
CCCC(=O)Nc1ccc2c(c1)OC[C@H](C)N(C(=O)C1CCCC1)C[C@@H](C)[C@H](OC)CN(C)C2=O	9.7	6.0
C[C@H]1CN([C@@H](C)CO)C(=O)c2c(c3ccccc3n2C)-c2ccccc2CO[C@H]1CN(C)Cc1ccc(C(F)(F)F)cc1	-23.6	-12.4
O=C1N(Cc2ccccc2)Cc2ccccc2[C@H]2OC(c3ccc(OCCCO)cc3)=N[C@@]12Cc1ccccc1	u	x
CCC(=O)N1[C@H](CO)[C@@H]2c3ccccc3N(C(=O)c3ccccc3F)C[C@@H]21	22.1	11.9
CCS(=O)(=O)Nc1ccc2c(c1)C(=O)N(C)[C@H]1CC[C@H](CC(=O)NCc3ccccc3F)O[C@H]1CO2	-6.3	8.2
CCC(=O)N1CC2(CCN(C(C)=O)CC2)c2c([nH]c3cc(OC)ccc23)[C@H]1CO	5.8	-2.9
Cc1ccc(S(=O)(=O)Nc2ccc3c(c2)C(=O)N([C@@H](C)CO)C[C@H](C)[C@H](CN(C)C(=O)CCCN(C)C)OCCCC[C@@H](C)O3)cc1	-2.1	-8.3
C[C@H](CO)N1C[C@H](C)[C@H](CN(C)C(=O)Nc2cccc3ccccc23)Oc2ccc(NC(=O)Cc3ccccc3)cc2CC1=O	10.6	10.6
CC(C)(C)[S@](=O)N1Cc2cc(C(=O)NC3CCCC3)nc(-c3cccc(Br)c3)c2[C@@H]1CCO	-19.2	-5.9
CN(C)C(=O)C[C@H]1CC[C@H]2[C@@H](COC[C@H](O)CN2CC2CCCC2)O1	9.2	11.2
O=C(N[C@@H]1C[C@@H]2O[C@H](CO)CC[C@@H]2O[C@@H]1CCc1ccc(C#Cc2ccccc2)cc1)c1ccccn1	u	x
C[C@H]1CN([C@@H](C)CO)C(=O)CCCn2nncc2CO[C@@H]1CN(C)Cc1cccc(O)c1	11.5	8.9
C[C@H]1CN([C@@H](C)CO)S(=O)(=O)c2ccc(-c3ccccc3)cc2O[C@@H]1CN(C)S(C)(=O)=O	-18.0	-21.1
Cc1noc(C)c1S(=O)(=O)N(C)C[C@@H]1OCCCC[C@H](C)Oc2ccc(NS(=O)(=O)c3cccs3)cc2C(=O)N([C@H](C)CO)C[C@H]1C	u	x
C[C@@H]1CN([C@H](C)CO)C(=O)c2cccc(NC(=O)c3ccncc3)c2O[C@@H]1CN(C)S(=O)(=O)c1cn(C)cn1	17.0	16.9
COCC(=O)N1[C@H](C#N)[C@@H](c2ccccc2-c2ccccc2)[C@H]1CO	13.3	10.2
C[C@H](CO)N1C[C@H](C)[C@H](CN(C)Cc2ccccc2)Oc2ccc(NC(=O)Nc3ccc(C(F)(F)F)cc3)cc2C1=O	u	x
C[C@@H]1CN([C@H](C)CO)C(=O)Cc2cc(NC(=O)CCN3CCOCC3)ccc2O[C@H]1CN(C)C(=O)Nc1ccccc1	34.1	15.1
COCC(=O)N1CC2(C1)[C@@H](c1ccc(-c3ccccc3)cc1)[C@@H](CO)N2C(C)=O	6.7	4.6
C[C@H]1CN([C@@H](C)CO)C(=O)CCCn2cc(nn2)CO[C@@H]1CN(C)C(=O)Nc1ccc2c(c1)OCO2	7.1	-0.7
CN1C(=O)c2cc(NS(=O)(=O)c3cccc(F)c3)ccc2OC[C@@H]2O[C@@H](CC(=O)O)CC[C@H]21	15.0	-9.6

Other results
structure	Vaccinia inh	Vaccinia inh Venus
CN1C(=O)N[C@@H]2c3ccccc3O[C@@]1(C)[C@@H]2COC(=O)c1ccccc1	3.2	7.2
C[C@H](CO)N1C[C@H](C)[C@H](CN(C)S(=O)(=O)c2ccccc2F)OCc2ccccc2-c2c(n(C)c3ccccc23)C1=O	-33.6	-27.2
COc1ccccc1C#Cc1ccc2c(c1)O[C@H](CN(C)C(C)=O)[C@@H](C)CN([C@H](C)CO)S2(=O)=O	-11.5	-12.7
CC=Cc1ccc2n(c1=O)C[C@@H]1[C@@H](CO)[C@H](C(=O)NCc3ccc(F)cc3)[C@H]2N1S(C)(=O)=O (mixture of isomers)	15.7	11.5
COc1cccc(NC(=O)N[C@H]2CC[C@H](CC(=O)N3CCN(C)CC3)O[C@@H]2CO)c1	7.7	-2.9
Cc1ccccc1-c1ccccc1[C@@H]1[C@@H](C#N)N(C(=O)c2cccc(F)c2)[C@H]1CO	2.7	-1.2
CNC[C@H]1Oc2ccc(NC(=O)Nc3ccc(F)cc3)cc2C(=O)N([C@H](C)CO)C[C@@H]1C	17.8	14.4
CC(C)NC(=O)Nc1ccc2c(c1)C(=O)N([C@@H](C)CO)C[C@H](C)[C@@H](CN(C)Cc1ccccc1)OCCCC[C@H](C)O2	-12.3	3.0
COc1ccc(NC(=O)Nc2ccc3c(c2)C(=O)N([C@@H](C)CO)C[C@@H](C)[C@H](CN(C)Cc2ccc(C(F)(F)F)cc2)OCCCC[C@@H](C)O3)cc1	-15.6	-7.8
CNC[C@H]1Oc2ccc(NC(=O)C3CCCCC3)cc2C(=O)N([C@@H](C)CO)C[C@@H]1C	13.8	5.4
C[C@@H]1CCCCO[C@H](CN(C)S(=O)(=O)c2cn(C)cn2)[C@H](C)CN([C@@H](C)CO)C(=O)c2cc(NS(=O)(=O)c3ccc(Cl)cc3)ccc2O1	-0.2	0.3
COc1ccc(NC(=O)Nc2cccc3c2O[C@H](CN(C)C(=O)Nc2c(C)noc2C)[C@H](C)CN([C@H](C)CO)C3=O)cc1	28.0	20.8
C[C@@H]1CN([C@@H](C)CO)C(=O)c2ccccc2-c2ccccc2CO[C@@H]1CN(C)Cc1cccc(F)c1	-29.6	-30.8
C[C@H]1CN([C@@H](C)CO)S(=O)(=O)c2ccc(/C=C/c3ccccc3)cc2O[C@@H]1CN(C)C(=O)NC1CCCC1	u	x
C[C@H]1CN([C@@H](C)CO)C(=O)c2cccc(NC(=O)Nc3ccc(F)cc3)c2O[C@@H]1CN(C)C(=O)Nc1ccccc1	7.5	10.2
C[C@H]1CN([C@@H](C)CO)C(=O)CCCn2nncc2CO[C@@H]1CN(C)C(=O)c1ccc(N2CCN(C)CC2)cc1	6.4	-0.7
Cc1noc(C)c1NC(=O)Nc1ccc2c(c1)C(=O)N([C@H](C)CO)C[C@H](C)[C@H](CN(C)S(=O)(=O)c1c(C)noc1C)OCCCC[C@H](C)O2	13.0	5.2
O=S(=O)(c1ccc(F)cc1)N1CCCCN2[C@H](C1)[C@@H](c1ccc(C#CC3CCCC3)cc1)[C@@H]2CO	20.7	18.7
COc1ccc(CN(C)C[C@H]2OCCCC[C@@H](C)Oc3ccc(NC(=O)Nc4ccc(OC)cc4)cc3C(=O)N([C@@H](C)CO)C[C@@H]2C)cc1	u	x
COCC#Cc1cnc2c(c1)C(=O)N([C@@H](C)CO)C[C@H](C)[C@@H](CN(C)C(=O)C1CCOCC1)O2	22.3	11.4
O=C(C[C@@H]1CC[C@H](NS(=O)(=O)c2ccccc2)[C@H](CO)O1)NCc1ccncn1	0.3	3.7
C[C@@H]1CN([C@H](C)CO)S(=O)(=O)c2ccc(-c3ccc(F)cc3)cc2O[C@@H]1CN(C)CC1CC1	u	x

3 compounds out of the list, sorted by number of heavy atoms, descending.
structure	Vaccinia inh	Vaccinia inh Venus
Cc1noc(C)c1NC(=O)Nc1ccc2c(c1)C(=O)N([C@H](C)CO)C[C@H](C)[C@H](CN(C)S(=O)(=O)c1c(C)noc1C)OCCCC[C@H](C)O2	13.0	5.2
COCC#Cc1cnc2c(c1)C(=O)N([C@@H](C)CO)C[C@H](C)[C@@H](CN(C)C(=O)C1CCOCC1)O2	22.3	11.4
C[C@@H]1CN([C@H](C)CO)S(=O)(=O)c2ccc(-c3ccc(F)cc3)cc2O[C@@H]1CN(C)CC1CC1	u	x

Shown field by field: entries from further up
C[C@@H]1CCCCO[C@H](CN(C)S(=O)(=O)c2cn(C)cn2)[C@H](C)CN([C@@H](C)CO)C(=O)c2cc(NS(=O)(=O)c3ccc(Cl)cc3)ccc2O1
  Vaccinia inh: -0.2
  Vaccinia inh Venus: 0.3

C[C@H]1CN([C@@H](C)CO)S(=O)(=O)c2ccc(/C=C/c3ccccc3)cc2O[C@@H]1CN(C)C(=O)NC1CCCC1
  Vaccinia inh: u
  Vaccinia inh Venus: x

Assay outcomes: PubChem, Broad Institute
